# Screening results deposited in PubChem BioAssay by National Center for Advancing Translational Sciences (NCATS).
# Cruzain Triton: inhibitors of Trypanosoma cruzi cruzain with detergent. Potency, µM, without a hit: max response, negative = inhibition, hits mostly inhibitors. AID 1478. actives 0.43% (n = 200,000). purified cruzain, Z-FR-AMC fluorescence, 0.01% Triton. P25779;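 also: plate controls were neutral wells for no effect and buffer without enzyme for full effect; nearly all actives have a fitted effect of over 40% in size; top concentration of the series not given in the record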
# Target sequence (P25779 123-467 limits assumed): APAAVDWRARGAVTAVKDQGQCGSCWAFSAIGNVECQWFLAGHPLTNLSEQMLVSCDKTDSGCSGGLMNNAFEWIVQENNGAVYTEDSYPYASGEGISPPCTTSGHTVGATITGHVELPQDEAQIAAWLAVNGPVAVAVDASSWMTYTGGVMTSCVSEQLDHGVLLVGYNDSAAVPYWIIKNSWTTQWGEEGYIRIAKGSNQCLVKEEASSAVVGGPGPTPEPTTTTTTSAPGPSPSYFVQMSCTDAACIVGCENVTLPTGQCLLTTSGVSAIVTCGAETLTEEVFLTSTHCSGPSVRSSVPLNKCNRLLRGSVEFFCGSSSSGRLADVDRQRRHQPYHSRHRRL
#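 Sodium acetate buffer (100 mM, pH 5.5) containing 5 mM DTT and 0.01% Triton X-100 hosted 1.5 nM cruzain and test compound for 15 min at room temperature. Cleavage of 2 uM Z-FR-AMC was then tracked by fluorescence.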
# SARS PLpro yeast: SARS-CoV PLP inhibition in yeast | S. cerevisiae expressing SARS-CoV PLpro, growth rescue; control for the full effect not named in the record | Potency, µM (doses to about 32.9 µM), for the others: at the highest dose activity, positive = growth rescue | actives 0.19% (n = 330,000); active means well fitted rising curve with a large enough effect; inconclusive means small, poorly fitted or top-dose-only effect; inactive means no such curve, though single readings can be large or run the other way; also: 0% is about no effect; nearly all actives have a fitted effect of over 55% in size; growth read by luminescence after 48 h
# LASV entry inh: inhibitors of Lassa virus binding or cell entry; Lassa virus pseudotype entry inhibition, cell reporter; control for the full effect not named in the record; Potency, µM (highest dose often 37.9 µM), without a hit: at the highest dose activity change, negative = inhibition, most hits filed as inhibitors; actives 1.2% (n = 300,000); AID 540256; active means well fitted inhibition curve with a large enough effect; inconclusive means small, poorly fitted or top-dose-only effect, or effect the other way; inactive means flat fitted curve, though single readings scatter; tested in HEK293 cells; also: % is scaled to controls: 0 for no effect and ±100 for the full control effect; nearly all actives have a fitted effect of over 50% in size; luciferase read-out
# RE007 growth inh: less growth of the S. pombe RE007 Vpr strain. S. pombe RE007 Vpr strain, BacTiter-Glo ATP luminescence, 24 h; control for the full effect not named in the record. Potency, µM (titrated, usually from 92.2 µM), inactives show top-dose activity change, negative = less growth. actives 0.21% (n = 360,000); active = well fitted falling curve with a large enough effect; inconclusive = small, poorly fitted or top-dose-only effect; inactive = no such curve, though single readings can be large or run the other way;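 also: % is scaled to controls: 0 for no effect and ±100 for the full control effect; nearly all actives have a fitted effect of over 50% in size; the assay follows cell death caused by Vpr and the record does not say whether a fall means rescue or toxicity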
#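 Fission yeast strain RE007, carrying one chromosomally integrated HIV-1 vpr copy, was seeded at OD 0.01 in PMG+AL medium with 23 nL pinned compound. After 24 h at 30 °C and 99% humidity, viability was read by BacTiter-Glo luminescence.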
# NS1 inh: inhibitors of influenza NS1 protein function | S. cerevisiae slowed by influenza A NS1, growth recovery by OD600 | Potency, µM (top dose mostly 46.1 µM), for the others: at the highest dose activity, positive = more growth | actives 0.4% (n = 270,000) | AID 2326; active means well fitted rising curve with a large enough effect; inconclusive means small, poorly fitted or top-dose-only effect; inactive means no such curve, though single readings can be large or run the other way; also: nearly all actives have a fitted effect of over 50% in size
#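 Recovery from NS1-induced slow growth read by OD600 in budding yeast switched to galactose assay medium (pH 6.0, -URA) at 1:100 dilution. Compound 23 nl per well; the matching strain lacking NS1 serves as control.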
# Cruzain inh noDet: blocks cruzain activity in detergent-free assay. Potency, µM, without a hit: max response, negative = inhibition, most hits filed as inhibitors. P25779. actives 2.3% (n = 200,000). purified cruzain, Z-FR-AMC fluorescence, no detergent;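 also: plate controls were enzyme without inhibitor for no effect and buffer without enzyme for full effect; nearly all actives have a fitted effect of over 40% in size; top concentration of the series not given in the record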
#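 Detergent-free condition (0.00005% Triton X-100) in acetate buffer pH 5.5 with DTT. 1.5 nM enzyme and compound were pre-mixed 15 min, then 2 uM Z-FR-AMC substrate added; reaction progress from fluorescence change between first and third reads (60 s).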
# 2A StopGo: FMDV 2A StopGo reporter, luciferase signal. human cells with a luciferase reporter of 2A StopGo recoding; control for the full effect not named in the record. Potency, µM (series often up to 57.9 µM), for the others: top-dose signal change, negative = less light. actives 1.2% (n = 410,000); active = well fitted falling curve with a large enough effect; inconclusive = small, poorly fitted or top-dose-only effect; inactive = no such curve, though single readings can be large or run the other way; tested in HEK293T cells; also: % is scaled to controls: 0 for no effect and ±100 for the full control effect; nearly all actives have a fitted effect of over 45% in size; luciferase light after 4 h
# Marburg entry inh: Marburg virus entry inhibition; Marburg virus pseudotyped entry inhibition, cell reporter; control for the full effect not named in the record; about a third of the inactives were read at about 46 µM; Potency, µM (series often up to 37.8 µM), for inactives: top-dose activity change, negative = inhibition, actives largely listed as inhibitors; actives 1.8% (n = 300,000); active = well fitted inhibition curve with a large enough effect; inconclusive = small, poorly fitted or top-dose-only effect, or effect the other way; inactive = flat fitted curve, though single readings scatter; tested in HEK293 cells; about a fifth of its hits are not listed in these tables; also: % is scaled to controls: 0 for no effect and ±100 for the full control effect; luciferase read-out
# An asterisk follows results filed as active; ? = inconclusive; nt = no result given; & = joins results of further samples; [ ] = dose if it differs, or a comment. Unless noted, calls follow the shape of the dose curve; as a rule, active = well fitted curve in the direction sought with a large enough effect; inconclusive = small, poorly fitted or top-dose-only effect, or another doubt; inactive = no such curve, though single readings can be large; an effect the other way counts as inactive or inconclusive. Potency is read from the fitted curve at half-maximal effect.
structure	Cruzain Triton	SARS PLpro yeast	LASV entry inh	RE007 growth inh	NS1 inh	Cruzain inh noDet	2A StopGo	Marburg entry inh
Cc1cc(NC(=O)CSc2nc(-c3ccc(Cl)cc3)cs2)no1	-2.3%	10%	-16%	-18%	1%	-27%	-26%	?
O=C(c1ccco1)N1CCN(C(=O)C2c3ccccc3Oc3ccccc32)CC1	-1.2%	2%	-17%	-19%	-19%	20%	nt	14%
CCN1C(=O)NC(c2cccnc2)C(C(=O)OC)=C1C (stereo not given)	0.8%	2%	16%	-6%	5%	-1%	5%	-7%
O=C(Nc1ccccc1N1CCOCC1)c1ccco1	nt	0%	11%	-6%	-5%	nt	-1%	0%[46.1 µM]
Cc1ccc(N=C(/N=C(\N)N[N+](=O)[O-])Nc2ccc(C)cc2)cc1	nt	nt	-7%[46.1 µM]	-11%	nt	nt	33%[activator]	-5%[46.1 µM]
O=C(O)C1C2C=CC(C3CC23)C1C(=O)N1CCc2ccccc21 (stereo not given)	-0.6%	8%	2%	10%	6%	1%	-11%	6%
CCn1cc(C(=O)OCC(=O)NCc2ccc3c(c2)OCO3)c(=O)c2ccc(C)nc21	1.0%	-7%	-1%	-10%	-2%	-17%	-9%	-5%
O=C(CN1CCN(c2ccc(F)cc2)CC1)Nc1cc(C(F)(F)F)ccc1Cl	-0.8%	-2%	-12%	?	?	24%	?	7%
O=C(NC1CCCC1)C(c1ccccc1F)N(C(=O)c1csnn1)c1ccccc1 (stereo not given)	nt	10%	nt	4%	-4%	nt	-4%	-19%[46.1 µM]
COCCCNC(=S)N(CCCO)Cc1cc2cc3c(cc2[nH]c1=O)OCCO3	nt	0%	-23%	1%	6%	nt	8%	-17%
CCCCCCn1c(SCC(=O)OC)nc2c1c(=O)[nH]c(=O)n2C	1.9%	-13%	nt	-5%	5%	-4%	0%	nt
Cc1ccc(NC(=O)C(NC2CCCc3ccccc32)c2ccccc2)c([N+](=O)[O-])c1 (stereo not given)	-5.2%	-15%	-13%	?	10%	?	10%	?
Cc1cc(C)c2c(N)c(C(=O)Nc3ccc(C)c(C)c3)sc2n1	nt	-5%	nt	-15%	-8%	nt	24%	nt
CCc1cccc(CC)c1NC(=O)COC(=O)c1ccc(F)c(S(=O)(=O)N(CC)CC)c1	-3.8%	-19%	-1%	4%	2%	8%	-23%	14%
C/C(=N\NC(=O)c1ccccc1O)c1ccc(Br)s1	-8.1%	-1%	?	4%	-9%	-26%	-7%	?
CC(=O)c1cccc(NC(=O)NC2CCCCCCC2)c1	nt	-8%	-29%[46.1 µM]	6%	-16%	nt	54%[activator]	22%[46.1 µM]
CC(C)=CCC/C(C)=C/CC/C(C)=C/CSc1ccccc1C(=O)O	-25%	nt	nt	nt	-9%	17%	nt	?
O=C(NNC(=S)Nc1ccccc1Cl)c1ccccc1Cl	nt	0%	-22%	-5%	25%	nt	44%[activator]	?
Cc1cccc(N(CC(=O)NC2CCCCC2)C(=O)Cn2nnc(-c3ccc(C)o3)n2)c1	nt	2%	-21%	3%	nt	nt	7%	?
O=C(Cn1ncc2c3ccccc3n(Cc3ccccc3)c2c1=O)NC1CCCCCC1	0.5%	nt	?	nt	nt	10%	11%	26%[46.1 µM]
C=CCOC(=O)CCC(=O)Nc1cc(OC)nc(OC)n1	0.4%	3%	16%	-11%	8%	-6%	10%	-4%
COc1ccc(C(=O)NC(=S)NCCO)cc1Br	0.4%	3%	?	2%	-6%	2%	nt	7%
O=S(=O)(c1ccc2nc(-c3ccco3)c(-c3ccco3)nc2c1)N1CCOCC1	22µM*	8%	-10%	0%	1µM*	1%	-15%	-13%&-13%
CN(C(=O)CCNC(=O)Cn1cnc2ccccc2c1=O)c1ccccc1F	-0.4%	0%	-14%&1%[46.1 µM]	1%	2%	-2%	?	-3%&-3%[46.1 µM]
O=C(CNC(=O)C(c1ccccc1)c1ccccc1)N/N=C/c1ccc(O)cc1O	nt	11%	nt	13%	0%	nt	8%	nt
O=c1[nH]c2cc3c(cc2cc1CN(Cc1nnnn1CC1CCCO1)C1CCCC1)OCO3 (stereo not given)	-17%	12%	-1%	40%	-11%	2%	19%	-1%
Cc1cc(N/C=C\c2nnnn2-c2ccccc2)no1	-3.2%	17%	7%	-6%	-2%	3%	74%[activator]	13%
CCCC(=O)C1=C(O)C(C(=O)OC)C(C)(C)CC1=N (stereo not given)	4.0%	7%	1%	19%	7%	-3%	-7%	-2%[46.1 µM]
COc1ccc(-c2[nH]nc3c2C(c2ccc(OC(=O)N4CCOCC4)cc2)C(C#N)=C(N)O3)cc1 (stereo not given)	2.4%	-6%	20%[14.3 µM]	-5%	-162%	2%	-6%	-8%
COc1ccc(-n2cc(-c3ccccc3)c3c(NC4CCCC4)ncnc32)cc1	-0.9%	nt	?	nt	nt	4%	?	nt

# Some of these compounds in order of SMILES length, rising.
structure	Cruzain Triton	SARS PLpro yeast	LASV entry inh	RE007 growth inh	NS1 inh	Cruzain inh noDet	2A StopGo	Marburg entry inh
CC(=O)c1cccc(NC(=O)NC2CCCCCCC2)c1	nt	-8%	-29%[46.1 µM]	6%	-16%	nt	54%[activator]	22%[46.1 µM]
Cc1cc(NC(=O)CSc2nc(-c3ccc(Cl)cc3)cs2)no1	-2.3%	10%	-16%	-18%	1%	-27%	-26%	?
O=C(CN1CCN(c2ccc(F)cc2)CC1)Nc1cc(C(F)(F)F)ccc1Cl	-0.8%	-2%	-12%	?	?	24%	?	7%

# Individual results from the entries so far.
# O=C(c1ccco1)N1CCN(C(=O)C2c3ccccc3Oc3ccccc32)CC1 @ Cruzain Triton = -1.2%
# CCN1C(=O)NC(c2cccnc2)C(C(=O)OC)=C1C (stereo not given) @ Cruzain inh noDet = -1%

# (cont.)
structure	Cruzain Triton	SARS PLpro yeast	LASV entry inh	RE007 growth inh	NS1 inh	Cruzain inh noDet	2A StopGo	Marburg entry inh
CCn1c(Cc2ccccc2)nnc1SCC(=O)Nc1nnc(-c2ccccc2)s1	1.3%	-4%	-6%	-12%	12%	7%	nt	15%
CCCOc1ccc(N2C(=O)CC(NNC(=O)c3ccc(COc4ccccc4)o3)C2=O)cc1 (stereo not given)	-4.4%	4%	?	7%	-5%	12%	-23%	-1%
O=C1CSC2(C(=O)N(Cc3ccccc3F)c3ccccc32)N1c1cccc(C(F)(F)F)c1 (stereo not given)	-11%	nt	?	nt	nt	-5%	?	nt
CCC(C)NC(=O)CSC1=Nc2ccccc2C2=NC(CC(=O)NCc3ccccc3)C(=O)N12 (stereo not given)	-4.5%	-7%	8%	8%	5%	-17%	18%	-11%&-11%
O=C(Cc1ccsc1)NNC(=O)c1ccccc1O	nt	7%	?	-3%	nt	nt	9%	-1%[46.1 µM]
COc1cccc(CN2CC(C(=O)NCCOc3ccccc3)CCC2=O)c1 (stereo not given)	nt	?	nt	5%	-4%	nt	6%	nt
O=C(O)CSc1nnc(-c2ccncc2)n1Cc1ccccc1	7.1%	-1%	17%	-1%	5%	9%	-6%	11%
COc1ccc(/C=C2\SC(=O)N(CC(=O)NCCCn3ccnc3)C2=O)cc1	nt	-4%	nt	-2%	-5%	nt	26%	nt
CCC(=O)N1CCc2cc(S(=O)(=O)NC(CC(C)C)C(=O)Nc3cccc(C)c3C)ccc21 (stereo not given)	-1.6%	nt	1%[46.1 µM]	nt	nt	3%	5%	-3%[46.1 µM]
COc1ccccc1-c1cc2nc(C)c(CCC(=O)NCc3ccc(F)cc3)c(C)n2n1	nt	-1%	13%[46.1 µM]	-6%	-39%	nt	-6%	0%[46.1 µM]
O=C(COc1ccccc1)NCC(c1ccc(Cl)cc1)N1CCCCC1 (stereo not given)	-2.6%	nt	10%[46.1 µM]	nt	nt	-1%	-8%	?
Cc1[nH]n2c(=O)c3c(nc2c1-c1ccc(F)cc1)CCCC3	nt	1%	0%	19%	5%	nt	-4%	1%[46.1 µM]
CC1(C)CC(=O)C(=CN2CCOCC2)C(=O)C1	nt	1%	-2%[46.1 µM]	0%	12%	nt	-1%	14%[46.1 µM]
Cc1ccc(C)c(OCCC(=O)OCC(=O)N2CCN(c3ccccc3)CC2)c1	nt	-5%	4%	-8%	-45%	nt	-15%	-4%
Cn1c(SCC(=O)Nc2ccc(N3CCOCC3)cc2)nnc1C1CC1	nt	1%	11%	-24%	nt	nt	4%	11%
COc1ccc(OC)c(CNc2ccc3c(c2)nc(C)n3C)c1	nt	-2%	-22%	-1%	8%	nt	-3%	23%&23%
COc1cc2oc(=O)c(Br)c(C)c2c(OC)c1OC	-1.6%	4%	-19%	3%	-13%	-3%	-17%	8%
COc1nc(OC)nc(N2CCCCCC2)n1	-3.9%	10%	-16%	-4%	4%[9.22 µM]	4%	nt	-1%
O=C(NC1CCCCC1)NC1(C(=O)NCCCN2CCOCC2)CCCCC1	2.8%	-8%	12%	0%	?	7%	-19%	-5%
Cc1ccc(-c2nn3c(-c4ccc(C)cc4)nnc3c3ccccc23)cc1	-0.4%	nt	24%[46.1 µM]	nt	nt	6%	-18%	1%[46.1 µM]
CN1C(=O)C(CC(=O)Nc2ccc(F)cc2)N(CCCc2ccccc2)C1=S (stereo not given)	-4.1%	-12%	?	22%	12%	2%	?	11µM*
Oc1ccc(C2Nc3cccc4cccc(c34)N2)cc1	nt	27%	nt	-9%	10%	nt	24%	nt
COc1ccc(C(=O)N[C@H](C(=O)NCc2ccco2)C(C)C)cc1	nt	-5%	-7%	-5%	nt	nt	-8%	-4%
CC(C)C(NS(=O)(=O)c1cccs1)C(=O)NCc1ccccc1Cl (stereo not given)	nt	-7%	7%[46.1 µM]	-4%	nt	nt	-14%	?
COc1ccccc1N1CC(O)=C(c2nc3ccccc3s2)C1=N	-6.1%	-5%	?	0%	-37%	1%	71%[activator]	?
Cc1cc(C)nc(SCc2ccc3nonc3c2)n1	-2.9%	nt	-5%	5%	-3%	4%	0%	-20%
N#Cc1c(N)n(CCCN2CCOCC2)c2nc3ccccc3nc12	-16%	-1%	-25%	-29%	8%	-16%	?	?
